Compound activity from PubChem BioAssay.
PINK1 modulator – PINK1 expression modulation | PINK1 immunofluorescence, high-content cytometry, 24 h | Potency, µM (doses to about 76.6 µM), for inactives: at the highest dose activation (PINK1 increase), actives largely listed as activators | hit rate 0.2% among 410,000 | AID 624263; active = well fitted activation curve with a large enough effect; inconclusive = small, poorly fitted or top-dose-only effect; inactive = flat fitted curve, though single readings scatter; cell line not stated here;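 further: potency means the concentration at half of the fitted maximal effect; % of control where 0% means no effect; nearly all actives have a fitted effect of over 65% in size; a mitochondrial uncoupler was the plate control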
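Fluorescence from anti-PINK1 antibody, together with nuclear and cell stains, was scanned on a laser-scanning cytometer. Before staining, stable-line cells were incubated 24 hours with compounds at 5 concentrations; primary antibody 12 h at 10 degrees C.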
D2 potentiator – human D2 receptor positive allosteric modulation; P14416; DiscoveRx D2 beta-arrestin cells, luminescence, 90 min; 100% = 57 uM dopamine signal; potentiation, % (test concentration not listed); hit rate 0.23% among 360,000; AID 624464; active = potentiation of 50% or more; inconclusive = 30% to 50%; inactive = 30% or less;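 further: compound concentration not given in the record; tested on top of an EC20 dose of dopamine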
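PathHunter beta-arrestin assay in DiscoveRx D2 cells. Compounds were added with an EC20 of dopamine (50 nM final) for 90 min at 37 deg C. Luminescence was read 1 h after detection reagent, with 57 uM dopamine as the EC100 control.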
Sfp inh – Sfp phosphopantetheinyl transferase inhibition. AID 1490. Potency, µM, for inactives: max response, negative = inhibition, usual class: inhibitors. hit rate 3.5% among 310,000. Biochemical Sfp PPTase activity, qHTS. Q9F4F7; active means well fitted inhibition curve with a large enough effect; inconclusive means small, poorly fitted or top-dose-only effect, or another doubt; inactive means no such curve, though single readings can be large or run the other way;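 further: the enzyme is Sfp with the accession as filed and its product quenches rhodamine fluorescence; potency means the concentration at half of the fitted maximal effect; 0% = enzyme reaction without inhibitor and -100% = no enzyme wells; top concentration of the series not given in the record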
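Step 1, compound plus 15 nM Sfp-PPTase, 15 min, room temperature. Step 2, add rhodamine-CoA (5 uM) and BHQ-2-YbbR (12.5 uM). Step 3, read 525/598 nm fluorescence at 0 and 30 min.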
Six1-Eya2 blk – inhibitors of human Six1/Eya2 interaction | activity change, % (test concentration not listed) | AlphaScreen GST-Six1/His-Eya2 binding, biochemical; stronger effect = lower value; control for the full effect not named in the record | hit rate 0.56% among 360,000 | Q15475+O00167; in the data active = activity change below about -65%; inconclusive = about -30% to -65%; inactive = above about -30%; further: on the % scale 0 is the no-effect control and ±100 the full control effect; compound concentration not given in the record
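Compounds are tested against tagged Six1 and Eya2 proteins bridged by glutathione donor and nickel acceptor beads; after a one-hour incubation at 37 °C without light, AlphaScreen emission is recorded.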
D2 agonist – agonists of human D2 dopamine receptor (beta-arrestin); P14416; DiscoveRx PathHunter D2 beta-arrestin, luminescence, 90 min; 100% = 57 uM dopamine signal; activation, % (no concentration beside the values); hit rate 0.084% among 360,000; AID 624465; in the data active = activation above about 40%; inconclusive = about 15% to 40%; inactive = below about 15%; further: compound concentration not given in the record; the text of the record calls up to 30% inactive
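DiscoveRx PathHunter D2 beta-arrestin cells (2,100/well) attached overnight, then compound-stimulated 90 min at 37 C in HBSS/10 mM HEPES/0.1% Tween-20 buffer; beta-galactosidase complementation read by luminescence after 1 h at ambient temperature. Dopamine 57 uM final (EC100) as control.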
CtBP-E1A inh – inhibitors of CtBP/E1A interaction | AlphaScreen GST-E1A/His-CtBP binding, 1536-well; stronger effect = lower value; control for the full effect not named in the record | activity change, % (test concentration not listed) | hit rate 0.49% among 340,000; in the data active means activity change below about -65%; inconclusive means about -30% to -65%; inactive means above about -30%; further: on the % scale 0 is the no-effect control and ±100 the full control effect; compound concentration not given in the record
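Steps: dispense buffer (Tris pH 8.0, NaCl 300 mM, TCEP 1 mM, BSA, Tween 20); add 5X protein mix (GST-E1A, His-CtBP, 125 nM each); pin 23 nL compound; 2 h at 37 °C, dark; add 5X beads (50 ug/mL); 1 h; read.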
TRPV1 potentiator – enhances activation of the human vanilloid receptor TRPV1; Q8NER1; TRPV1-expressing cells, Fluo-8 calcium influx, capsaicin EC20 potentiation; host cell line not named in the record; control for the full effect not named in the record; potentiation, % at 8.33 µM; hit rate 0.02% among 320,000; AID 540277; active means potentiation above 80%; inconclusive means 30% to 80%; inactive means below 30%; further: 0% is about no effect
Target sequence (Q8NER1 whole entry, looked up): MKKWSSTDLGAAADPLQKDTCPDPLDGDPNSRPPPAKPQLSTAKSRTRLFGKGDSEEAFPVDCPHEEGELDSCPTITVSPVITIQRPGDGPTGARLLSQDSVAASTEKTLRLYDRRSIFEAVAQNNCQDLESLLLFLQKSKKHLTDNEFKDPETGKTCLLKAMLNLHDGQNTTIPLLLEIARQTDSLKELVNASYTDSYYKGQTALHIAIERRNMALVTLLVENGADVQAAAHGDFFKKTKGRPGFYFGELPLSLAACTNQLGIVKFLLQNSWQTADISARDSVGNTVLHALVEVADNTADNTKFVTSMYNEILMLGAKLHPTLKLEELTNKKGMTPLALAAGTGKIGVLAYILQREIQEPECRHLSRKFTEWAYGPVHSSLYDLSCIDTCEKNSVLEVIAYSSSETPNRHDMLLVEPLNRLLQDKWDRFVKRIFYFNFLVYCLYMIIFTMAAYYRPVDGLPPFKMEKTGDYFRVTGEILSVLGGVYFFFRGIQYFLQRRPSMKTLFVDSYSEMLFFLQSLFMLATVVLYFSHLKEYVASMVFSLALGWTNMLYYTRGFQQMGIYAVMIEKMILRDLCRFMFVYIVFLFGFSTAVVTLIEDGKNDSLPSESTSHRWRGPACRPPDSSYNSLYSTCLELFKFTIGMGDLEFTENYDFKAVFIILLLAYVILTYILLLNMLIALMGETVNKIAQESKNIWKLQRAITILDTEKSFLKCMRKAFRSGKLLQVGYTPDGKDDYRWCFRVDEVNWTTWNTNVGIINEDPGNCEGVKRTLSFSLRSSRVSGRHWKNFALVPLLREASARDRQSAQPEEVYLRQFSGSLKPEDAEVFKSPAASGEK
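TRPV1-expressing cells were cultured overnight at 35.5C and loaded with Fluo-8 calcium dye for 40 to 90 min at room temperature. After a 10 s baseline, compound was added and calcium influx was read kinetically for 3 min (ex 480/em 520 nm).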
* = called active by the depositor; ? = inconclusive; . = not tested or not shown; & = joins results of further samples; [ ] = another dose, or the depositor's remark. Not a hit list; overall some 3.7% were active at least once.

| Structure | CtBP-E1A inh | D2 agonist | Six1-Eya2 blk | TRPV1 potentiator | Sfp inh | PINK1 modulator | D2 potentiator |
| --- | --- | --- | --- | --- | --- | --- | --- |
| CC(=NNC(=O)c1ccccc1N)c1ccccc1O | -27 | -6.4 | -21 | . | . | -1.0% | -16 |
| CCc1nc(SCc2ccccc2C)n[nH]1 | . | -4.9 | 6 | -21 | 13% | 3.2% | -16 |
| CCOC(=O)c1c(NC(=O)CN2CCCc3ccccc32)sc(C)c1CC | 0 | -1.9 | -16 | 26 | -18% | 11% | -6 |
| COc1ccc(-c2c(C)nn(Cc3ccccc3)c2N)cc1 | -22 | 0.2 | -7 | -7 | 6% | -4.9%[38.3 µM] | -10 |
| Cn1c(-c2ccccc2)cc(=O)n1-c1ccccc1 | 5 | -4.7 | 6 | . | . | -2.9% | 2 |
| CC(Sc1nc2ccccc2s1)C(=O)NCc1ccc2c(c1)OCO2 (stereo unspecified) | 8 | -2.5 | 7 | -14 | -4% | 1.3% | -1 |
| COc1ccc(C)cc1NC(=O)COC(=O)c1ccc2c(c1)OCO2 | . | -2.7 | 3 | -3 | . | 8.1% | -5 |
| Cc1nnc(SCC(=O)NC2CCCC2)n1-c1ccccc1 | . | -5.1 | 5 | 11 | . | 1.2% | -2 |
| Cc1cc(O)c(Sc2ccccc2)c(=O)o1 | 3 | -4.3 | 0 | . | . | 0.2% | 0 |
| Cc1ccc(C(=O)OC(C)CN2CCOCC2)cc1 (stereo unspecified) | 4 | -0.8 | 8 | 20 | 3% | 0.4% | -9 |
| CCSc1nnc(NC(=O)CSC2=NCCS2)s1 | 4 | 4.2 | 2 | -6 | -24% | -1.0% | 7 |
| COc1cc(C=O)ccc1OCCCOc1ccccc1C(=O)O | -3 | 0.4 | 1 | -17 | 15% | 0.4% | 6 |
| CCC(=O)Nc1c(C)c(CC)nc2ccccc12 | 4 | 1.2 | -2 | -1 | 7% | ? | 5 |
| Cc1ccc(-c2n[nH]c(=S)n2/N=C/c2cccn2C)cc1 | -6 | -3.6 | -9 | 1 | 0% | -0.2% | -15 |
| COc1ccccc1CNc1ccc2nnc(CCNC(=O)c3ccc(C)cc3)n2n1 | 1 | 2.3 | 0 | 5 | 9% | 1.4% | 1 |
| CC(C)NC(=O)CN(C(=O)CCC(=O)Nc1ccccn1)c1ccc(F)c(Cl)c1 | -5 | -4.8 | -15 | -28 | 3% | ? | -10 |
| O=C(CSc1nc2[nH]c(=O)cc(O)c2s1)NCCc1ccccc1 | -3 | 2.0 | -16 | -4 | . | 0.4% | -14 |
| CCOC(=O)C1CCN(C(=O)CCn2c(=O)[nH]c3ccsc3c2=O)CC1 | 7 | -3.9 | 0 | 6 | 6% | 0.6% | -7 |
| S=c1[nH]nc(Nc2ccccc2)s1 | . | 12 | -10 | 0 | ? | -0.4% | -5 |
| CC(=O)C1CCCN(C(=O)c2ccc3nc(Cc4cccc(Cl)c4)oc3c2)C1 (stereo unspecified) | 15 | -2.0 | -2 | -3 | 13% | 0.4% | -17 |
| Cc1ccc(C2=CC(=O)CC(C)(C)C2)cc1 | -21 | -2.6 | 3 | -21 | . | 0.1% | -12 |
| O=c1[nH]c(N2CCc3ccccc32)nc2c1CCCC2 | -1 | 0.9 | 3 | 2 | 16% | 4.9% | -2 |
| Cc1nc(C)c(C(=O)C2=C(O)C(=O)N(CCN3CCOCC3)C2c2ccco2)s1 (stereo unspecified) | 7 | -1.3 | 5 | -5 | -17% | 2.0% | -5 |
| CCCN(CCC)CCCNC(=O)c1cn(CC)c2ccc(S(=O)(=O)N(C)C3CCCCC3)cc2c1=O | . | 3.5 | -2 | -9 | 3% | 2.8%&1.0% | 1 |
| O=C(Nc1nc(-c2ccccn2)cs1)c1ccc(Br)s1 | -71* | -2.5 | ? | -6 | 12% | 2.8%[38.3 µM] | 5 |
| O=C(Cc1ccc(F)cc1)N1CCOCC1 | -9 | 1.6 | 3 | -4 | 20% | 1.5% | 1 |
| O=C(CSCc1ccc(F)cc1)Nc1ccc(N2CCOCC2)cc1N1CCOCC1 | 5 | 1.1 | 0 | 4 | . | 3.0% | 2 |
| COc1ccccc1CN(C)C(=O)C(c1ccccc1)c1ccccc1 | 4 | 6.5 | 1 | -10 | 6% | 1.9% | -13 |
| O=C(CCC(=O)NC12CC3CC(CC(C3)C1)C2)NC1CCCCC1 | . | -3.4 | 0 | -3 | 3% | -1.3% | -5 |
| O=C(NCCCn1ccnc1)C(=O)Nc1ccccc1 | 1 | 2.3 | 7 | 0 | 10% | 2.3% | -2 |
| COc1ccccc1-n1cnc2sc(-c3ccccc3)cc2c1=O | -1 | -6.9 | 9 | -1 | 20% | 4.7% | 6 |
| O=C(c1cccs1)N1CCN(C2CCN(Cc3ccccc3)CC2)CC1 | -3 | -2.3 | 1 | -29 | 20% | -0.2% | -27 |
| CC(=O)C1=C(O)C(=O)N(CCC(=O)O)C1c1cccc(F)c1 (stereo unspecified) | 4 | -2.2 | 7 | 0 | -13% | . | -3 |
| O=C(NCC1CCCO1)c1cccc(N2CCCC2=O)c1 (stereo unspecified) | -2 | -1.8 | 6 | 5 | 12% | -1.6% | 1 |
| C=CCn1c(=O)c(C(C)=O)cn(N(C)c2ncc(C(F)(F)F)cc2Cl)c1=O | 8 | -0.6 | 10 | -4 | 2% | 0.2% | 6 |
| O=C(COC(=O)c1cc([N+](=O)[O-])ccc1N1CCOCC1)NCc1ccc(Cl)cc1Cl | -6 | -10.0 | -12 | -16 | 5% | 1.1% | 0 |
| O=S(=O)(/N=C(/Nc1ccccc1F)c1ccccc1)c1ccccc1 | 0 | 2.7 | 12 | -4 | 13% | -0.6% | -3 |
| C=CCNC(=S)N/N=C/c1ccc(C(F)(F)F)cc1 | 2 | -18 | 4 | 30 | -6% | 5.6% | -3 |
| CC(C)CNc1ncnc2[nH]ncc12 | 0 | -0.2 | 3 | . | . | 1.8% | 1 |
| C(=C\n1nnc2ccccc21)/c1ccc[nH]1 | -2 | -1.7 | -30 | 0 | . | 0.1% | -6 |
| O=c1[nH]c(SCc2n[nH]c(=S)n2-c2ccccc2)nc2sc3c(c12)CCC3 | ? | -1.2 | -14 | -1 | ? | -2.0%[38.3 µM] | -19 |
| COc1ccc(S(=O)(=O)Nc2ccc(-n3cnnn3)cc2)cc1[N+](=O)[O-] | . | -2.1 | 1 | 0 | . | -0.2% | -4 |
| Cc1cc(C)c(NC(=S)NC(NC(=O)c2ccccc2)C(Cl)(Cl)Cl)c(C)c1 (stereo unspecified) | -4 | 2.2 | -4 | 1 | 16% | 16% | -2 |
| O=S1(=O)NC[C@]23C[C@H](c4ccc(F)cc4)[C@@H](C[C@@H]21)O3 | . | -5.6 | 5 | 3 | 5% | 0.3% | -9 |
| OCCC1CN(Cc2cccn2-c2ccccn2)CCN1C1CCCC1 (stereo unspecified) | 0 | 0.0 | -2 | -1 | 15% | -0.4% | -14 |
| CCn1c(N)c(C(=O)NCc2ccc3c(c2)OCO3)sc1=S | -7 | -3.7 | -13 | 9 | 45µM* | 0.3% | -13 |
| C=CCn1c(SCC(=O)Nc2nc3ccccc3s2)nnc1-c1ccccc1O | -6 | 0.0 | -11 | 2 | -3% | ? | -14 |
| COc1ccc(-c2[nH]ncc2/C=N\NC(=O)c2ccc(Br)o2)cc1OC | -15 | 0.0 | -7 | -6 | 21% | -2.2% | -25 |
| Nc1ccc2oc(C3CCCCC3)nc2c1 | 1 | -4.6 | -21 | 1 | 5% | -0.7% | -11 |
| CN1CCC(=O)N([C@H](COc2ccccc2)Cc2ccccc2)CC1 | 0 | -1.3 | 1 | 1 | -6% | -0.4% | -23 |
| O=C(Nc1ccc2c(c1)OCO2)c1cnc2n(c1=O)CCS2 | 7 | 1.1 | 0 | -1 | -8% | ? | -7 |
| Cc1cccc(C)c1NC(=S)N1CCCCCC1 | 3 | -4.4 | -9 | -5 | 12% | -0.4% | -9 |
| O=C(O)CSCCn1cccn1 | 2 | 1.1 | 0 | -12 | 8% | 2.5%[38.3 µM] | -2 |
| CCCCCCN(C(=O)CCCCCN1C(=O)NC(c2ccc([N+](=O)[O-])cc2)C(C(=O)OCc2ccccc2)=C1C)C(C(=O)NCCCC)C1CCCCC1 (stereo unspecified) | -4 | -2.1 | -1 | . | . | 1.6% | . |
| O=C(c1cc(COc2ccc(F)cc2F)on1)N1C[C@H]2CC[C@H]1C2 | -29 | -0.5 | -13 | -26 | 2% | 3.5% | -7 |
| CC(C)(C)c1ccc(OCCCNC2CCCC2)cc1 | -3 | -4.2 | 7 | 4 | -5% | 21% | -11 |

Going on with the list.
| Structure | CtBP-E1A inh | D2 agonist | Six1-Eya2 blk | TRPV1 potentiator | Sfp inh | PINK1 modulator | D2 potentiator |
| --- | --- | --- | --- | --- | --- | --- | --- |
| CCOC(=O)c1ccccc1NC(=O)Nc1ccc(OC)c(OC)c1 | 46 | -1.3 | 26 | 5 | 10% | -8.5%[38.3 µM] | 2 |
| O=C(NCCc1ccccc1)C(=O)NCC1OCCCN1S(=O)(=O)c1cccs1 (stereo unspecified) | -5 | -2.8 | -4 | 3 | 11% | 1.5% | -12 |
| Cc1ccc(F)cc1C(=O)N1CCCC1(C)C(=O)NCC(C)C (stereo unspecified) | 6 | -4.1 | -4 | . | . | 3.7% | -3 |
| CCOc1ccc(NC(=O)C2CCN(C(=O)C3CC(=O)N(c4ccc(C)cc4)C3)CC2)cc1 (stereo unspecified) | 5 | 2.5 | -6 | -4 | 10% | 0.9% | -4 |
| CN(C)c1ccc(Nc2c3c4c(cccc4n(C)c2=O)C(=O)c2ccccc2-3)cc1 | ? | 0.0 | ? | -3 | -14% | 6.2% | 3 |
| Cc1ccc(S(=O)(=O)N2C[C@H]3C(=O)C[C@@H](c4ccccc4)N(S(=O)(=O)c4ccccc4C)[C@H]3C[C@H]2c2ccccc2)cc1 | -5 | -1.0 | -5 | . | . | 0.9% | -1 |
| Cc1cccc(-n2cnc3cc(C(=O)NCC4CCCO4)ccc32)c1 (stereo unspecified) | 6 | -0.5 | 0 | . | . | 15% | -13 |
| CC(=O)Nc1cnc(/C=C\CCCO)cn1 | -8 | 4.9 | 7 | . | . | -0.7% | -9 |
| Fc1ccc(Br)cc1/C=N/n1cnnc1 | -1 | -1.8 | 3 | 23 | 16% | -0.6% | 9 |
| Nc1nc(SCc2ccccc2Cl)ns1 | 5 | -0.1 | 0 | -7 | -1% | -2.2% | 3 |
